# Choline anaer gr = growth inhibitors of anaerobic choline-fed gram-negatives, minimal medium, absorbance | Gram-negative bacterium anaerobic choline minimal medium; active compounds read low; many inactives read as strong as hits in the columns shown | calls only | hit rate 0.2% among 55,000 | AID 1963822, 2024;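 active = growth z-score on choline under -2 at 7 or 20 h with little or no fall on glycerol, limits in tiers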;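 note: stock transfer was 300 nL into about 50 µL; the organism is E. coli; final concentration not given here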
# Choline anaer gr early = second read-out of Choline anaer gr, no call of its own (marks repeat the call); z-score; measured here: choline growth z-score, timepoint 1;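 score of optical density at 7 h as mean of two plates; lower means less growth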
# * marks the source's active call; other numbers are inactive results; i = inactive; & = joins results of further samples. These rows are one share of the data (hit frequency here may not be typical).
# Preview:
SMILES,Choline anaer gr,Choline anaer gr early
O=C(NCCN1CCCC1)c1ccc(Cn2c(SCc3ccc(Cl)cc3)nc3ccncc32)cc1,i,-1.65
Cn1c(N2CCCC(C(=O)N3CCN(c4ncccn4)CC3)C2)cc(=O)n(C)c1=O (configuration not stated),i,-0.03

# Results, from the first entry:
SMILES,Choline anaer gr,Choline anaer gr early
O=C(NCCN1CCCC1)c1ccc(Cn2c(SCc3ccc(Cl)cc3)nc3ccncc32)cc1,i,-1.65
Cn1c(N2CCCC(C(=O)N3CCN(c4ncccn4)CC3)C2)cc(=O)n(C)c1=O (configuration not stated),i,-0.03
Cc1nn(C)c(C)c1CNC(=O)CCCn1c(=O)c2cccn2c2ccc(Br)cc21,i,-0.3
Cc1nn(-c2ccccc2)c(C)c1/C=N/N1CCN(Cc2ccccc2)CC1,i,-1.67
Cc1nc2n(c(=O)c1CCN1CCC(c3noc4cc(F)ccc34)CC1)CCCC2,i,-0.29&0.52&0.14
Cc1ccc2c(c1)C(=O)[C@]1(O)CCN(c3ccccc3)C1=N2,i,-0.45
COC(=O)CCc1ccc(OCC(O)CNC(C)C)cc1 (configuration not stated),i,-0.62&0.46&0.68&0.47
CCS(=O)(=O)N1CCCCCC1c1ccc(C)s1 (configuration not stated),i,0.89
Cc1ccc2c(n1)nn1c(C)cc(C)nc21,i,0.07
CN1C(=O)C(c2c(-c3ccc(Br)cc3)[nH]c3c2c(=O)[nH]c(=O)n3C)c2ccccc21 (configuration not stated),i,0.85
O=C(CNC(=O)c1ccc(-c2noc(C3CCCC3)n2)cc1)Nc1ccc2c(c1)OCO2,i,0.51
CC(=O)Nc1cnc(N2CCN(CCOc3ccc(Cl)cc3)CC2)c(C(=O)O)c1,i,-0.85
CC(C)[N+]1(C)[C@@H]2CC[C@H]1CC(OC(=O)C(CO)c1ccccc1)C2 (some centres not stated),i,0.83
CCOc1ccc(Oc2cc3c(cc2NC(=O)c2sccc2C)n(C)c(=O)c(=O)n3C)cc1,i,1.04
COc1cc2c(cc1NS(=O)(=O)c1ccc3c(c1)n(C)c(=O)n3C)n(C)c(=O)n2C,i,0.02
Cc1ccc(C(=O)NCCc2csc3nc(-c4ccccc4C)nn23)cc1C,i,0.48
Cc1ccc(C2C3=C(CCCC3=O)Nc3ccccc3N2C(=O)c2ccccc2)cc1 (configuration not stated),i,0.3
Cc1ccc(NC(=O)N2CCC3(CC2)Nc2ccccc2-n2cccc23)cc1,i,-0.7
COc1ccc(Nc2nc(-c3nnn(-c4ccccc4)c3C)ns2)cc1OC,i,1.48
Cc1cccc(N2CCN(CC(O)c3c[nH]c4ccccc34)CC2)c1C (configuration not stated),i,-0.94

# Ordered by value in Choline anaer gr early (low to high): four of the compounds above
mol,Choline anaer gr early
Cc1ccc(NC(=O)N2CCC3(CC2)Nc2ccccc2-n2cccc23)cc1,-0.7
Cc1nn(C)c(C)c1CNC(=O)CCCn1c(=O)c2cccn2c2ccc(Br)cc21,-0.3
Cc1ccc(C(=O)NCCc2csc3nc(-c4ccccc4C)nn23)cc1C,0.48
COc1ccc(Nc2nc(-c3nnn(-c4ccccc4)c3C)ns2)cc1OC,1.48

# 7 entries picked at random from those above:
SMILES,Choline anaer gr,Choline anaer gr early
CC(C)[N+]1(C)[C@@H]2CC[C@H]1CC(OC(=O)C(CO)c1ccccc1)C2 (some centres not stated),i,0.83
Cc1nn(C)c(C)c1CNC(=O)CCCn1c(=O)c2cccn2c2ccc(Br)cc21,i,-0.3
Cc1ccc2c(n1)nn1c(C)cc(C)nc21,i,0.07
O=C(CNC(=O)c1ccc(-c2noc(C3CCCC3)n2)cc1)Nc1ccc2c(c1)OCO2,i,0.51
COC(=O)CCc1ccc(OCC(O)CNC(C)C)cc1 (configuration not stated),i,-0.62&0.46&0.68&0.47
Cc1ccc2c(c1)C(=O)[C@]1(O)CCN(c3ccccc3)C1=N2,i,-0.45
COc1cc2c(cc1NS(=O)(=O)c1ccc3c(c1)n(C)c(=O)n3C)n(C)c(=O)n2C,i,0.02

# More results
SMILES,Choline anaer gr,Choline anaer gr early
C=CCOc1ccccc1C1CC(=O)Nc2c1c(C)nn2-c1ccc2nnc(C)n2n1 (configuration not stated),i,-1.99
O=C(CSc1ncnc2c1[nH]c1ccc(Br)cc12)NC1CCCCC1,i,0.76
Cc1c(C(=O)NN2CCCCC2)nn(-c2ccc(Cl)cc2Cl)c1-c1ccc(I)cc1,i,0.66&0.91&0.28
CCCc1ccc(S(=O)(=O)N(C)CCc2noc(COc3ccc(Cl)cc3)n2)cc1,i,0.71
Cc1csc(-c2cc(S(=O)(=O)NCCc3ccccc3)c(C)s2)n1,i,0.5
Cn1c(=O)c2[nH]c(-c3ccncc3)nc2n(C)c1=O,i,-1.51
Cc1csc(-c2cc(S(=O)(=O)NCc3ccccc3Cl)c(C)s2)n1,i,-1.61
CCCn1cnnc1C1CCCN(C(=O)Cc2ccsc2)C1 (configuration not stated),i,0
CNC(=O)N1CCc2cc(S(=O)(=O)Nc3ccc4c(c3)OCO4)ccc21,i,-2.53
CCS(=O)(=O)Nc1cc(-c2nnc(C3CC3)o2)sc1C,i,-0.41
CCn1cc(C)c(C(=O)O)c1CC(=O)NC1CCN(Cc2ccccc2)CC1,i,0.55
CC(=O)Nc1cccc(N2CC(C(=O)NC3CCCc4ccccc43)CC2=O)c1 (configuration not stated),i,-0.31
Cc1ccc(CNC(=O)Cn2c(=O)n(CCCCC(=O)NC(C)C)c(=O)c3ccccc32)cc1,i,0.82
C[C@H](Cc1cc2c(c(C(N)=O)c1)N(CCCO)CC2)NCCOc1ccccc1OCC(F)(F)F,i,-0.04
O=C(CSc1nnc2c3sc(N4CCCC4)nc3ncn12)Nc1ccc(F)cc1,i,-0.65
Cc1[nH]c(C(=O)Nc2ccc(F)cc2F)c(C)c1S(=O)(=O)N1CCCCC1,i,1.23
CCCC(=O)OCc1cnc(C)c2oc(=O)c(C(=O)Nc3ccccc3C(=O)OC)cc12,i,1.03
Cc1cccc(NS(=O)(=O)c2ccc(NC(=O)CN3C(=O)c4ccccc4S3(=O)=O)cc2)c1,i,-0.28
CCSc1nnc(-c2nn(C)c3c2CN(S(=O)(=O)c2ccc(CC(C)C)cc2)CC3)n1CC,i,0.92
COc1ccc(NC(=O)Cn2c(=O)c(C(F)(F)F)nc3ccccc32)cc1OC,i,0.62
CCc1ccc2c(c1)[C@H]1OCC[C@H]1C(c1ccc(Cl)cc1)N2 (some centres not stated),i,0.16
Cc1ccc(S(=O)(=O)NCCc2csc3nc(-c4cccc(F)c4)nn23)cc1,i,0.88
Cc1ccc(NC(=O)Nc2nnc(CC(=O)NCc3ccccc3)s2)cc1C,i,0.58
Cn1cc(C(=O)Oc2cccc(F)c2)c2ccccc2c1=O,i,0.87
Cn1c(=O)c(-c2noc(C(=O)NC3CCCC3)n2)nn(-c2ccccc2)c1=O,i,0.03
O=C(COc1ccc(F)cc1)N1CC(OCc2ccc(F)cc2)C1,i,0.31
CCc1ccc2c(c1)[C@H]1OCC[C@H]1C(c1cc(OC)ccc1OC)N2 (some centres not stated),i,0.04
COc1ccccc1N1CCN(CCN2C(=O)CC3(CCCC3)CC2=O)CC1,i,-1.62&0.3&0.64
CCCNC(=O)Cc1c(C)nc2nc(-c3ccccc3)nn2c1C,i,-0.25
O=C(Nc1ccc(Cl)cc1)c1ccc(-n2nc(OCc3ccc(Cl)cc3)ccc2=O)cc1,i,0.24
COC(=O)c1ccc2c(c1)CN(c1ccc(F)cc1)C(=O)CO2,i,-1.38
COc1cc2ncnc(Nc3ccc(Cl)cc3F)c2cc1OC,i,0.15&0.11
CN(C)c1ncc(C(=O)Nc2ccc(F)c(F)c2)cn1,i,-0.7
Cc1ccc(Cl)c(Nc2ccccc2C(=O)O)c1Cl,i,0.5&0.46&0.28
CCc1ccc(NC(=O)Nc2cc(C(=O)NCc3ccc(C)cc3)ccc2N2CCCC2)cc1,i,0.35
Cc1ccc2cc(-c3noc(CCCC(=O)Nc4ccc(F)cc4)n3)c(=O)[nH]c2c1,i,0.92
COc1cccc(C(=O)N2CCCC(c3nnc(C(=O)Nc4ccc(F)cc4)s3)C2)c1 (configuration not stated),i,-0.64
O=C(Nc1ccc(N2CCCS2(=O)=O)cc1)c1cccc(Br)c1,i,1.75
CCCCNC(=O)c1ccc2c(c1)nc(C1CCN(S(=O)(=O)c3ccc(C)cc3)CC1)n2C1CCCCC1,i,-0.7
O=C(Nc1ccc2c(c1)OCCO2)c1cccc(Nc2ccnc(-c3cccc(F)c3)n2)c1,i,0.43
CC(C)NS(=O)(=O)c1cccc2nsnc12,i,-0.86
CC1(O)CCOC(=O)C1 (configuration not stated),i,0.6
NC(=O)c1cc(S(=O)(=O)NCCC2=CCCCC2)cs1,i,-0.08
O=C(C1CCCN(c2nc3ncccc3n3cccc23)C1)N1CCCC1 (configuration not stated),i,-2.79
Cc1ccc2cc(CN(c3ccccc3)S(C)(=O)=O)c(=O)[nH]c2c1,i,-0.68
O=S(=O)(c1ccccc1Cl)N1CCn2cccc2C1c1ccc(F)c(F)c1 (configuration not stated),i,0.23
O=C(CC1Sc2ccccc2NC1=O)Nc1ccc(F)c(Cl)c1 (configuration not stated),i,0.78
COc1ccc(Cl)cc1NC(=O)c1cc(-c2ccncc2)n[nH]1,i,-0.64
CCc1cc(=O)[nH]c(Nc2ccccc2)n1,i,-0.74
CCn1c(=O)c(=O)n(CC(=O)N2CCN(c3ccccn3)CC2)c2cccnc21,i,-0.17
Cc1ccc(N2C(=O)CCS2(=O)=O)cc1S(=O)(=O)N1CCCC1,i,0.14
CC1OC(O)C(O)C(O)C1O (configuration not stated),i,0.47
O=C(CN1C(=O)CCCc2cc(S(=O)(=O)N3CCCC3)ccc21)NCc1cccnc1,i,0.03
COc1cccc(NS(=O)(=O)c2cc(-c3nc(C)c(C(=O)N4CCCC4)s3)cs2)c1,i,-0.6
Cc1ccc2c(c1)C=C(C(=O)Nc1ccc(C(C)C)cc1)C=CO2,i,1.68
Cc1ccc(NC(=NCc2ccncc2)NC(=O)c2ccc3c(c2)OCO3)cc1,i,-0.45
O=C(c1cc(NS(=O)(=O)c2ccccc2)ccn1)N1CCCCC1,i,0.18
CCc1cc(C(Nc2nc(C)cc(C)n2)c2ccccc2OC)c(NC(=O)c2ccccc2)s1 (configuration not stated),i,1.59
COCCNC(=O)c1c(NC(=O)c2snnc2C)sc2c1CCCC2,i,0.62
CCn1ccc(-c2nc(-c3ccc4c(c3)[nH]c(=O)c(=O)n4CC(C)C)no2)n1,i,0.32

# The list goes on.
SMILES,Choline anaer gr,Choline anaer gr early
CN(C)S(=O)(=O)Nc1ccc(N2CCCC(CN3CCCC3)C2)c(C(=O)O)c1 (configuration not stated),i,0.25
C=CCn1c(=O)c(=O)n(Cc2ccc(C(=O)NC3CCCc4ccccc43)cc2)c2ccccc21 (configuration not stated),i,-0.19
O=C(CN1C(=O)CC(c2ccc(F)cc2)=Nc2cccnc21)NCc1ccccc1Br,i,-0.01
Cc1ccc(-c2cc(-c3nc(-c4ccc(Br)cc4)no3)[nH]n2)cc1C,i,0.02
COC(=O)c1ccccc1NC(=O)N1CCCN(c2ccc(=O)n(-c3ccc(F)cc3)n2)CC1,i,-0.14
Cc1[nH]c(C(=O)N2CCCC(C(=O)N3CCN(c4ccccc4)CC3)C2)c(C)c1C (configuration not stated),i,-0.93
Cc1ccc2cc(-c3noc(CCCC(=O)NC(C)c4ccccc4)n3)c(=O)[nH]c2c1 (configuration not stated),i,-0.23
Cc1[nH]c(C)c(S(=O)(=O)N2CCC(C(=O)N3CC=C(c4ccccc4)CC3)CC2)c1C(=O)N1CCCCC1,i,-0.64
Cc1sc2nc(SC/C=C/c3ccccc3)nc(N)c2c1C,i,-1.2
Cc1nc(-c2cc(S(=O)(=O)N3CCCCC3)c(C)s2)no1,i,-0.86
Cc1cccc(NC(=O)c2ccc3c(c2)OCCCO3)c1,i,-0.76
COc1ccc(Cn2cc3ccc(C(=O)NCc4ccc(Cl)cc4)cc3n2)cc1,i,-0.33
O=C(Cn1nc(N2CCN(c3ccccc3)CC2)ccc1=O)N1CCOCC1,i,-0.52
CCOC(=O)c1cnn(-c2ccc(C(=O)N3CCCC3)cc2)c1N,i,-1.19
CCc1ccc(NC(=O)CSc2n[nH]c(=O)c3cc(-c4ccc(OC)cc4)nn23)cc1,i,0.36
CCOc1c(Nc2ccc(OC)cc2)c(=O)c1=O,i,-1.86
CC[C@H]1OC(=O)[C@H](C)[C@@H](O[C@H]2C[C@@](C)(OC)[C@@H](O)[C@H](C)O2)[C@H](C)[C@@H](O[C@@H]2O[C@H](C)C[C@H](N(C)C)[C@H]2O)[C@](C)(O)C[C@@H](C)C(=O)[C@H](C)[C@@H](O)[C@]1(C)O,i,-0.92&-2.84
Cc1ccc(-n2nc(N3CCCN(C(=O)c4cc5cc(Cl)ccc5[nH]4)CC3)ccc2=O)cc1,i,-0.4
O=C(Nc1ccc2c(c1)OCO2)N1CCC(N2CCN(Cc3ccc(F)cc3)C(=O)C2=O)CC1,i,-1.39
COc1ccc(C2(C(=O)N3CCC(n4nc(-c5ccsc5)ccc4=O)CC3)CC2)cc1,i,0.33
CCOC(=O)c1nc(N(C)C2CCCCC2)c2ccccc2n1,i,-0.12
O=C(CN1CCN(C(=O)c2ccc(F)c(Cl)c2)CC1)Nc1nnc(-c2ccccc2)s1,i,0.65
C[C@@]12C(=O)OC(=O)[C@]1(C)[C@H]1CC[C@@H]2O1,i,1.21
Cc1cccc(-c2nn(-c3ccccc3)c3nc(OCC(=O)NCc4ccccc4)cc(C)c23)c1,i,0.11
Cc1cc2oc3c(c(=O)c2cc1C)C1(C(=O)N(C)c2ccccc21)N(CC1CCCO1)C3=O (configuration not stated),i,0.76
O=C(NCCC1=CCCCC1)c1cccc(N2C(=O)CCS2(=O)=O)c1,i,-0.36
CCc1cc(Sc2nnc(N)s2)n2ncnc2n1,i,-6.48
Cc1nc2ncnn2c(NCC(C)C)c1C,i,-0.03
O=C(Cn1c(=O)c(=O)n(Cc2ccccc2)c2ncccc21)NCc1ccc2c(c1)OCO2,i,-0.22
Cc1cc(C)cc(C(=O)N2CCN(c3nc(C)cc(N4CCOCC4)n3)CC2)c1,i,-0.78

# Assay outcomes: PubChem, ICCB-Longwood Screening Facility, Harvard Medical School
